T cruzi inh – T. cruzi replication inhibition | inhibition, % (test concentration not listed) | 300,000 tested, 1.4% active | AID 1885 | T. cruzi beta-gal in NIH3T3, luminescence, 90 h;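 active = mean inhibition across valid replicates above about 55%, limit read from the data; inconclusive = mean below that limit but half or more replicates reach it; inactive = mean below it, under half of replicates reach it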;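 also: signal also drops with host cell toxicity which is not excluded here; 0% = plate median of DMSO wells and 100% = zero luminescence signal; higher percent means less beta-gal luminescence so fewer parasites; stock transfer was 50 nL into about 50 µL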
A1 inh – inhibitors of the anti-apoptotic protein A1, read as caspase activation; MEF A1-2A-BIM cells, Caspase-Glo 3/7 luminescence, 3 h; percent of clofoctol response, vehicle zero; caspase activation, % (concentration not given with the values); 330,000 tested, 0.066% active; AID 2462;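 active = over half of replicate activation scores above 10%, or exactly half above 10 with the replicate mean above 10; inconclusive = replicate mean below 10 yet half the replicates above 10; inactive = over half of replicates below 10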;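 also: wells of about 30 µL received 50 nL stock; many hits fall short of the cut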
FGF22 binding – FGF22 (human) thermal shift binding | Q9HCT0 | recombinant FGF22 thermal shift, SYPRO orange fluorescence; percent of sucrose octasulfate shift, DMSO zero | calls only at 9.99 µM | 340,000 tested, 1.5% active;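 active = melting point raised past a set limit in the mean and every replicate; inconclusive = no clear call; three in four hits are not shown here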
Target sequence (Q9HCT0 whole entry, looked up): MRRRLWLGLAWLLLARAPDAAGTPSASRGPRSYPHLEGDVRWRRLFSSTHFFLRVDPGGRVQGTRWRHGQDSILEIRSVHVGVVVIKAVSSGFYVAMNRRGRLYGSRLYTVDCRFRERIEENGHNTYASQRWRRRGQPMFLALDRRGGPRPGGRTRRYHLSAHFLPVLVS
Beta cell apopt – blocks beta cell apoptosis | 300,000 tested, 0.8% active | protection from apoptosis, % (concentration not given with the values) | INS-1E cytokine-induced death, ATP luminescence, 48 h; percent of positive-control rescue, neutral wells zero;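 active = all replicates at 75% or more, or half of them and the mean; inconclusive = half reach 75% but not the mean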;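 also: 0% = cytokine-treated negative control wells and 100% = positive control rescue; higher means more ATP so stronger rescue from cytokine killing; wells of about 40 µL received 100 nL stock; the first replicate is given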
AF4-AF9 inh – blocks AF4 peptide binding to human AF9. P42568. AlphaScreen, biotin-AF4 peptide binding to FLAG-AF9. inhibition, % at 10 µM. 350,000 tested, 0.47% active. AID 651704;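 active = every replicate reaching a set inhibition limit, whatever the replicate mean, cut at about 25% in these data; inconclusive = mean inhibition reaches that limit but some replicates miss it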;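 also: 0% = plate neutral control median and 100% = total signal loss; the record names both 10 and 1 µM as test concentration; the first replicate is given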
Target sequence (P42568 whole entry, looked up): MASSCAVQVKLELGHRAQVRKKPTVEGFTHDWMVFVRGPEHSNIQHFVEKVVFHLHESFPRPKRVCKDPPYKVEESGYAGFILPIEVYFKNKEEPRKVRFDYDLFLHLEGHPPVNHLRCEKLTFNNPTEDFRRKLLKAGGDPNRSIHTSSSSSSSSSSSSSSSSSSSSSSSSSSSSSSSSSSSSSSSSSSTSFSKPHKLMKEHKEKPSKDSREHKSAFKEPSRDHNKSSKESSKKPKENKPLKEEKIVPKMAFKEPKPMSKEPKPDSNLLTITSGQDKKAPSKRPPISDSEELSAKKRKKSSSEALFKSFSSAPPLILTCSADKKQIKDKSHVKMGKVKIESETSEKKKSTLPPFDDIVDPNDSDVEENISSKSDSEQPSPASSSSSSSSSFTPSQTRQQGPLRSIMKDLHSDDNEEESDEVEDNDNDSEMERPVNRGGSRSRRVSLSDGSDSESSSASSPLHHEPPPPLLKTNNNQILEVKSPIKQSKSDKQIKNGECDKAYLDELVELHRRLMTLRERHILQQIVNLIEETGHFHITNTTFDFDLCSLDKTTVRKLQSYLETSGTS
E coli growth – blocks Escherichia coli growth. OD600, 23 h; active compounds read low. OD600 absorbance (concentration not given with the values). 330,000 tested, 0.21% active. AID 1053175;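 active = OD600 absorbance below the run mean of sample wells minus 3.6 SD, in any replicate, cut at about 0.56 in these data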;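 also: stock transfer was 300 nL into about 60 µL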
rRNA inh HTS – selective bacterial rRNA inhibition in E. coli; E. coli WT GFP vs humanized-ribosome RFP mutants, fluorescence, 24 h; active compounds read low; DMSO median 0, no signal -100; GFP signal change (wild-type ribosome), % (test concentration not listed); 350,000 tested, 1.6% active; AID 720706;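 active = significant combined selectivity score with lowered wild-type GFP, culture density cut under 30%, mutant RFP and density less affected; inactive = any of these conditions unmet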; also: one replicate is shown; some compounds called inactive have numbers as strong as hits
UCH37 DUB inh – human UCH37 deubiquitinating enzyme inhibition; Q9Y5K5; purified proteasome/UCH37, Ub-AMC cleavage fluorescence; inhibition, % (test concentration not listed); 330,000 tested, 0.33% active; AID 588478;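 active = mean of two replicates above 20%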;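 also: 0% = compound-free wells with enzyme and 100% = wells lacking proteasome; stock transfer was 100 nL into about 20 µL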
Target sequence (Q9Y5K5 whole entry, looked up): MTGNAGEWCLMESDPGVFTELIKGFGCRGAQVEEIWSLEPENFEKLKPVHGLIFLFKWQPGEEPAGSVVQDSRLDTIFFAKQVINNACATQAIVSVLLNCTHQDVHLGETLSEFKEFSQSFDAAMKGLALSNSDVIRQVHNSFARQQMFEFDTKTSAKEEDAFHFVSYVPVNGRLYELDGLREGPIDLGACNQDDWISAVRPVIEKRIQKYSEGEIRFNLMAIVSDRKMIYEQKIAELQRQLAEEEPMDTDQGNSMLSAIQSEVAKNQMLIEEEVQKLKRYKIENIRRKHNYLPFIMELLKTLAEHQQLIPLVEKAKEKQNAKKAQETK
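Test system – human UCH37 enzyme supplied as purified proteasome complex · Incubation – 30 min preincubation with enzyme, 25 min cleavage at room temperature · Detection – AMC fluorescence from Ub-AMC cleavage, excitation 355 nm, emission 460 nm · Benchmarks – no-proteasome wells (full inhibition) and compound-free wells (no inhibition)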
rRNA inh HTS OD600 – second read-out of rRNA inh HTS, no call of its own (marks repeat the call); OD600 change, %; measured here: OD600 growth;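 optical density of the mix in the first replicate; 0 = DMSO median and -100 = no signal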
rRNA inh HTS RFP – further read-out of rRNA inh HTS, marked with its call; RFP signal change, %; measured here: RFP humanized mutant strains;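 first replicate; 0 = DMSO median and -100 = no signal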
* = called active by the depositor; i = inactive; ? = inconclusive; · = no result given; & = joins results of further samples. These rows are one share of the data, so the mix of outcomes need not match the whole.

SMILES	T cruzi inh	A1 inh	FGF22 binding	Beta cell apopt	AF4-AF9 inh	E coli growth	rRNA inh HTS	rRNA inh HTS OD600	rRNA inh HTS RFP	UCH37 DUB inh
O=C(NCCc1ccc(Cl)cc1)C1CCCN1C(=O)NCc1ccccc1 (centres undefined)	-25	1.1	i	·	-2.1	0.69	1	6	-3.4	5.4
CCOC(=O)c1sc(=S)n(C)c1NC(=O)c1ccc(OC)cc1	6	0.2	i	-2	·	0.68	-21*	-10*	-2.5*	5.8
COc1ccc(C(CNC(=O)C2CC(=O)N(Cc3ccccc3)C2)N2CCOCC2)cc1 (centres undefined)	·	0.5	i	-2	-4.9	0.61	·	·	·	2.0
Cc1cnc(NC(=O)CSc2ccc(Cl)cc2)s1	-4	-0.4	·	-8	·	0.7	·	·	·	2.2
COC(=O)C1CCN(C(=O)Cn2nnc(-c3cccc(F)c3)n2)CC1	-12	1.1	i	-4	0.6	0.69	6	-1	-0.6	3.2
Cc1ccc(-n2c(CCC(=O)O)ccc2-c2cccs2)cc1C	17	0.6	·	1	·	0.74	·	·	·	-2.2
Cc1cc(NS(=O)(=O)c2ccc(NC(=O)C(C)Oc3cc(C)c(Cl)c(C)c3)cc2)no1 (centres undefined)	20	-0.3	i	-3	-2.7	0.71	-7	-16	-0.3	2.9
COc1ccc(F)cc1C(=O)C1CCCN(Cc2ccc(Oc3ncccn3)cc2)C1 (centres undefined)	50	0.2	i	7	2.8	0.66	15	4	0.7	-16
Cc1ccccc1NC(=S)NNC(=O)c1ccncc1	1	-1.6	i	-4	-2.6	0.69	10	14	-3.0	8.0
COc1ccc(NC(=S)N2CCC(N(C)CC3CCCO3)CC2)cc1 (centres undefined)	-10	0.4	·	-4	·	0.71	·	·	·	4.4
CC(C)(C)c1nc(SCC(=O)NCc2ccco2)c2ccccc2n1	17	0.1	·	-8	·	0.64	·	·	·	2.3
COCC(=O)Oc1c(S(=O)(=O)c2ccccc2)c(C)nn1C(C)(C)C	-2	?	i	-5	-0.5	0.65	14	12	6.4	4.4
N#Cc1ccc(-c2ccccc2)nc1SCCN1CCOCC1	19	0.8	i	-2	1.2	0.66	-9	-7	-0.4	1.4
O=C(Cc1cccc2ccccc12)NCC(=O)Nc1ccccc1F	4	0.1	i	5	1.9	0.74	2	-3	-0.3	-1.5
O=C(OCc1ccccc1)/C(=C/c1cccc2ccccc12)NC(=O)c1ccccc1	10	0.5	·	4	·	0.7	·	·	·	6.4
O=S(=O)(NCCn1ccc2ccccc21)c1ccccc1	-4	0.8	i	-7	-9.5	0.75	0	3	-0.2	-1.3
COc1ccccc1-c1c(C)nn2c(NCCN3CCCC3)cc(C)nc12	-1	0.0	i	·	8.4	0.75	5	5	0.9	-0.4
Cn1c(=O)c2c(nc(C(O)c3ccccc3)n2C)n(C)c1=O (centres undefined)	·	·	i	·	-58	0.71	8	9	-2.1	0.0
COc1ccccc1NS(=O)(=O)c1ccc(O)c(NC(=S)NCC2CCCO2)c1 (centres undefined)	-2	1.0	i	-7	-8.5	0.67	-1	-5	2.3	1.6
CCN(CC)CCCNC(=O)/C=C/C(=O)O	-12	0.6	i	2	-0.5	0.64	11	11	-3.1	4.0
CCCCN(C)C(=O)c1ccc2c(c1)S(=O)(=O)c1ccccc1C2=O	-11	0.9	i	6	9.5	0.7	-11	-12	0.2	-0.6
CCN1C(=O)[C@H]2[C@@H](c3ccc(-c4ccc(OC)cc4)c(OC)c3)N[C@@](CC(C)C)(C(=O)OC)[C@H]2C1=O	·	1.3	i	-6	2.7	·	3	3	-7.0	1.7
COc1ccc([N+](=O)[O-])cc1NC1CCN(C(=O)c2cccs2)CC1	-3	0.6	i	0	5.0	0.66	2	2	-2.5	4.0
Cc1ccc(-n2nnnc2SCC(=O)N2Cc3ccccc3CC2C(=O)O)cc1 (centres undefined)	-8	0.7	i	2	-35	0.69	1	5	3.9	0.9
O=C1CCCN1c1ccc(S(=O)(=O)N2CCC(c3ccccc3)CC2)cc1	-17	0.0	·	7	·	0.75	·	·	·	1.4
Next results follow.
SMILES	T cruzi inh	A1 inh	FGF22 binding	Beta cell apopt	AF4-AF9 inh	E coli growth	rRNA inh HTS	rRNA inh HTS OD600	rRNA inh HTS RFP	UCH37 DUB inh
CCOc1ccc(CCNC(=O)c2cccc(N3CCCC3=O)c2)cc1OCC	0	?	·	·	·	0.7	·	·	·	1.4
Cc1ccc(S(=O)(=O)NN2C(=O)/C(=C\c3ccc(Cl)cc3)SC2=S)cc1	-5	0.5	i	-1	-7.8	0.7	4	4	1.5	6.5
Cc1cc(=O)oc2c3c(cc(OCC(=O)NCCC(=O)O)c12)OC(C)(C)CC3	-2	0.2	i	-5	0.0	0.64	1	2	1.7	i
Cc1ccc(-c2csc(SCC(=O)Nc3cc(C)on3)n2)cc1	1	0.1	·	-2	·	0.7	10	12	-1.8	2.0
CC(C)N(C(=O)[C@H]1CC(CC(=O)NCCCN(C)C)C(=O)N2CCc3c([nH]c4ccccc34)[C@]12C)C(C)C (some centres undefined)	·	0.4	i	-2	4.2	0.7	9	16	4.1	2.8
O=C(/C=C/c1ccccc1)N1CCN(Cc2nc3ccccc3c(=O)[nH]2)CC1	6	0.2	i	5	0.8	0.69	-1	1	-2.6	6.8
O=S(=O)(Nc1ccc2ccccc2n1)c1ccccc1	3	0.4	i	-1	-2.5	0.67	0	0	-1.8	-17
CCS(=O)(=O)c1ccc(-c2cccc(NC(=O)COc3ccc(Cl)cc3)c2)nn1	2	-0.8	i	-4	-7.3	0.68	10	16	1.4	2.4
COc1cccc(/C=c2\s/c(=C\C(=O)C(C)(C)C)[nH]c2=O)c1	13	-0.1	i	5	-2.2	·	-3	-12	0.1	·
CSc1nsc(NC(=O)CCNC(=O)c2ccc([N+](=O)[O-])cc2)n1	-2	0.0	i	-7	-1.6	0.62	-10	2	1.5	4.3
COc1cccc(OCC(O)CN2CCN(c3ccccn3)CC2)c1 (centres undefined)	11	0.2	i	-6	0.8	0.67	12	1	1.1	-6.3
O=C(Nc1ccc(S(=O)(=O)Nc2nccs2)cc1)c1ccc(F)cc1	-12	-0.3	i	0	3.3	0.68	-1	-1	-1.1	1.1
Cc1ccccc1SCC(=O)NNC(=O)c1ccccc1O	-9	-0.2	i	-5	-2.2	0.68	-13	-6	-0.2	-8.2
CC(C)(C)S(=O)N1Cc2cc(CO)cc(-c3ccccc3)c2[C@H]1CCO (some centres undefined)	·	·	i	·	0.4	0.68	11	14	6.8	-1.4
COc1ccc(OC)c(N(C)S(=O)(=O)c2cc3c(cc2C)NC(=O)CO3)c1	1	0.3	i	7	7.0	0.77	-23	-39	-9.7	5.7
COc1cccc(CC(=O)OCC(=O)N(C)CC(=O)Nc2ccc(Cl)c(C(F)(F)F)c2)c1	-9	0.9	i	·	1.8	0.65	-29	-41	-3.2	1.5
CCOc1ccc(CN2CCNC(=O)C2CC(=O)NCCN2CCOC2=O)cc1 (centres undefined)	-11	0.1	i	0	-2.3	0.7	7	10	-0.1	-2.9
N#CCC(=O)Nc1ccc(C(=O)OCC(=O)N=c2sccn2Cc2ccccc2Cl)cc1	19	1.0	i	4	1.1	0.71	-7	-12	14	5.9
O=C(NCCCN1CCN(c2ccc(F)cc2)CC1)NC12CC3CC(CC(C3)C1)C2	24	-0.3	i	2	10	0.67	7	-20	7.4	3.9
O=S(=O)(Nc1nc2ccccc2nc1Cl)c1ccc(F)cc1	-12	-0.1	i	5	5.3	0.67	7	0	-2.5	-0.1
Cc1ccc(OCC(=O)Nc2ccc(N3CCOCC3)cc2)cc1	-1	0.0	·	4	·	0.7	-4	-6	-6.7	1.6
COC(=O)c1c(C)[nH]c(C(=O)C(C)OC(=O)C2CC(=O)N(CCc3ccccc3)C2)c1C (centres undefined)	·	1.3	i	-2	-0.9	0.7	·	·	·	5.8
COc1ccc(NC(=O)C2CCN(c3nnnn3-c3ccccc3)CC2)cc1	-8	-0.4	·	·	·	0.73	·	·	·	3.7
CN=C(Nc1cc(C)nn1CCC#N)c1ccccc1	-3	-0.8	i	-6	1.8	0.62	6	7	1.0	-2.5
Cc1ccc2cc(CN(Cc3ccco3)C(=S)NCC3CCCO3)c(=O)[nH]c2c1 (centres undefined)	15	-0.2	·	-4	·	0.67	·	·	·	-0.1

Next section; the last 2 above are carried over.
SMILES	T cruzi inh	A1 inh	FGF22 binding	Beta cell apopt	AF4-AF9 inh	E coli growth	rRNA inh HTS	rRNA inh HTS OD600	rRNA inh HTS RFP	UCH37 DUB inh
CN=C(Nc1cc(C)nn1CCC#N)c1ccccc1	-3	-0.8	i	-6	1.8	0.62	6	7	1.0	-2.5
Cc1ccc2cc(CN(Cc3ccco3)C(=S)NCC3CCCO3)c(=O)[nH]c2c1 (centres undefined)	15	-0.2	·	-4	·	0.67	·	·	·	-0.1
Cc1cc2c(cc1C)C(=O)C(Br)=C(N)C2=O	·	·	i	·	-1.8	0.69	4	6	7.3	4.3
Cc1cc2c(C)c(C)c(=O)[nH]c2cc1N	-4	0.7	·	1	·	0.68	·	·	·	i
Cc1ccc(-c2ncns2)cc1	-29	-0.3	i	8	·	0.66	22	24	1.9	1.4
O=C1C2C3c4ccccc4C(c4ccccc43)C2C(=O)N1c1nc(-c2ccccc2)cs1 (centres undefined)	18	1.0	·	·	·	0.72&0.72	·	·	·	-1.0
COC(C[C@H](O)CC(=O)COCc1ccccc1)OC	-27	·	i	·	·	·	6	1	-0.3	0.3
CC(Sc1ccccc1)C(=O)NN=C1CCCC1 (centres undefined)	-12	-0.4	i	-9	0.6	0.74	6	4	-0.1	-0.8
CCCCOc1ccc(S(=O)(=O)n2c(C)nc3ccccc32)cc1	-10	-0.5	i	-5	0.2	0.66	7	-2	-1.8	2.0
CCOC(=O)CCC(=O)NNC(=O)COc1ccc(C(C)C)cc1Br	-4	-0.2	i	-4	-2.1	0.71	-5	-6	2.1	7.5
Cc1ccc2c(c1)nnn2C1CCN(C(=O)NCc2ccccc2)CC1	0	1.2	i	8	-21	0.63	-16	-24	-5.8	3.0
COc1ccc(C)cc1NS(=O)(=O)c1ccc(Br)s1	7	0.4	i	-8	2.6	0.68	-12	-17	-3.0	-1.2
Cc1ccc(C(=O)O/N=C(\N)c2ccccn2)cc1Cl	3	-3.8	i	·	-3.0	0.68	-2	-3	-0.2	2.5
COc1ccc(CNC(=O)CN2C(=O)C(c3ccccc3)Oc3cccnc32)cc1 (centres undefined)	-12	0.1	i	3	6.7	0.7	-8	-4	3.5	0.5
Cc1ccc(OCC(=O)NCc2ccccn2)cc1	-4	0.9	·	-1	·	0.65	·	·	·	-0.3
COc1cccc(OC)c1OCCCc1c(C)n[nH]c1C	-18	0.3	·	-3	·	0.68	·	·	·	3.5
CCOC(=O)Cc1ccc(NC(=O)c2ccc([N+](=O)[O-])cc2)cc1	13	-0.3	i	-16	-1.6	0.72	22	9	-1.9	5.5
Cc1cccc(C(C)C)c1NC(=O)c1cc2ccccc2o1	15	1.5	i	-4	-0.4	0.63	-11	-12	-2.3	1.3

Screening data deposited in PubChem BioAssay by several laboratories.
